High-throughput results as filed in PubChem.
Biofilm kill mix: clotrimazole potentiators killing C. albicans biofilm, primary screen, 4-compound mixtures | inhibition, % at 7.6 µM | 0.02% of 120,000 active | C. albicans biofilm persisters + clotrimazole, fluorescence viability; primary screen in compound mixtures of four per well;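 active = inhibition above 30.3% in the primary screen of four-compound pools, then above 30% when the compound was retested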;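 also: compounds exposed to preformed 24 h biofilms for 48 h; the number belongs to the whole pool; some results filed as inactive read as strong as hits; inactives centre near 12; 0% = biofilm with clotrimazole alone and 100% = kill control; retested singly at about 60 µM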
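Probe or stimulus – Clotrimazole 50 µg/mL co-treatment · System – C. albicans biofilms · Schedule – 24 h biofilm formation, then 48 h compound exposure, 37 °C · Evaluation – percent inhibition of biofilm viability · Technique – 2-h Alamar Blue fluorescence, 535/590 nm excitation/emission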
* marks the source's active call; other numbers are inactive results.

Molecule | Biofilm kill mix
CC1Cc2ccccc2N1CC(=O)NC(c1ccccc1)c1ccccc1 (centres undefined) | 17.9
O=C(O)C1CC=CCC1C(=O)Nc1cc(Cl)ccc1Cl (centres undefined) | 12.9
CN(C)c1ccc(C(=O)NN2C(=O)c3ccccc3C2=O)cc1 | 8.9
Nc1[nH]c(N=NC(=O)c2ccccc2)c2ccccc12 | 12.0
CCn1cc(C(=O)Nc2ccc(C)cc2C)c(=O)c2ccc(C)nc21 | 12.6
CC(C)CC(NC(=O)OC(C)(C)C)c1cn([C@@H](CCCCNC(=O)OC(C)(C)C)C(=O)N2CCN(C(=O)OC(C)(C)C)CC2)nn1 (some centres undefined) | 17.8
N=c1c2c(ncn1Cc1ccco1)Oc1cc(O)ccc1C2c1ccccc1 (centres undefined) | 11.0
CC1CCC2C(=O)N(c3ccc(NC4CCN(Cc5ccccc5)CC4)c([N+](=O)[O-])c3)C(=O)C2C1 (centres undefined) | 12.2
O=c1c2ccccc2cnn1Cc1n[nH]c(=S)n1C1CC2CCC1C2 (centres undefined) | 11.8
O=C1NCCN/C1=C\C(=O)c1ccc(Br)cc1 | 12.4
CCc1cc2c(=O)c(-c3ccc(F)cc3)c(C(F)(F)F)oc2cc1OCC(=O)O | 8.1
Cc1cc(Oc2ccc(N)cn2)cc(C)c1Cl | 20.0
COc1ccccc1CNC(=O)COC(=O)[C@H](Cc1c[nH]c2ccccc12)NC(=O)c1cccs1 | 8.8
CC(C)c1nnc(NC(=O)CSc2nnc(NC(=O)c3c(F)cccc3F)s2)s1 | 16.0
O=C(Nc1cccs1)Nc1c(F)c(F)c(F)c(F)c1F | 17.4
CCn1nnnc1SCC(=O)NCc1ccc2c(c1)OCO2 | 15.1
CC(=O)n1cc([C@@H]2C=C(C(=O)Nc3ccccc3)O[C@H](OCCCCO)C2)c2ccccc21 | 19.2
COc1ccc(CNC(=O)COC(=O)c2ccccc2C(=O)c2ccccc2)cc1 | 4.0
CN(Cc1cn(C)nc1-c1ccc(Oc2ccccc2)cc1)C1CCOC1 (centres undefined) | 20.7
Cc1cc(C)n(-c2nc(SCC(=O)O)c3c4c(sc3n2)CCCC4)n1 | 9.8
O=C(NCc1ccccc1)C(=O)NCC1OCCN1C(=O)c1ccc(Cl)cc1 (centres undefined) | 16.2
COc1ccc(CCN2CC(C(=O)Nc3cccc(C(C)=O)c3)CC2=O)cc1OC (centres undefined) | 10.5
CCn1c(CN2CCN(Cc3ccc(C)cc3)C(CCO)C2)nc2ccccc21 (centres undefined) | 1.6
COC(=O)CNC(c1ccccc1)c1cc(Br)ccc1NC(=O)CCN1CCOCC1 (centres undefined) | 19.6
CC(C)(C)c1[nH]nc2c1C(c1ccsc1)C(C#N)=C(N)O2 (centres undefined) | 21.8
COc1cccc(NC(=S)N/N=C2\CC(C)(C)Oc3ccc(O)cc32)c1 | 21.1
Cc1cc(C)n(C(=O)/C(C#N)=N\Nc2ccccc2[N+](=O)[O-])n1 | 7.9
CCOc1ccccc1CN1CCN(Cc2nc3c(s2)CCCC3)CC1CCO (centres undefined) | -0.5
O=C(CCSc1nnc2ccccn12)Nc1ccc2c(c1)OCO2 | 9.6
O=C(O)c1ccc2c(c1)C1C=CCC1C(c1ccncc1)N2 (centres undefined) | 19.1
CC1=C/C(=C\c2ccc(Br)o2)C(=O)O1 | 18.8
CC1CCC/C(=N\NC(=S)Nc2ccccc2)C1 (centres undefined) | 10.9
COc1cccc(C2CC(c3ccc(NS(C)(=O)=O)cc3)=NN2C(=O)c2ccccc2)c1OC (centres undefined) | 6.0
CC(=O)N(C(C)=O)S(=O)(=O)c1ccc(N=NN2CCOCC2)cc1 | 18.9
COc1ccc(/C=N/NC(=O)CSCC(=O)Nc2ccccc2)cc1 | 26.5
Nc1ccc2nc(-c3ccc(N)c(Cl)c3)[nH]c2c1 | 15.4
Cc1cccc(NC(=O)c2ccc(NCC3CCCO3)c([N+](=O)[O-])c2)n1 (centres undefined) | 1.2
Cc1cc(C)c(OCC(=O)Nc2ccccn2)c([N+](=O)[O-])c1 | 13.8
CCOC(=O)c1c(NC(N)=O)nc2n1CCC2 | 14.8
Cc1nn(CCCC(=O)Nc2cc(Oc3ccccc3)cc([N+](=O)[O-])c2)c(C)c1[N+](=O)[O-] | 10.9
CC(NC(=O)CSc1nnc(-c2cccnc2)n1N)c1ccccc1 (centres undefined) | 13.0
CC1=CC(=Nc2c(C)n(C)n(-c3ccccc3)c2=O)C=C(C)C1=O | 16.8
Cc1ccc(O)c(C(=O)/C=C/c2ccc3c(c2)OCCCO3)c1 | 0.7
COc1cc(/C=N/Nc2ccc3ccccc3c2)ccc1OC(=O)c1ccco1 | 8.3
Cc1ccc(N2NC(C)(c3cccs3)NC2=S)cc1 (centres undefined) | 15.7
Cc1ccc(C2=NCN(c3ccc(C(=O)O)cc3)C(=S)N2)cc1 | 15.0
CC(C)Oc1ccc(C(=O)NNC(=O)c2ccccc2C(=O)O)cc1 | 15.5
Cc1c(NC(=O)OC(C)C)sc(=S)n1C | 17.6
CC(C)N(C(=O)Cn1c(-c2ccccc2Cl)nc2ccccc21)c1ccccc1 | 13.2
COc1cc(/C=N/N=C2/NC(=O)C(Cc3ccccc3)S2)ccc1O (centres undefined) | 20.9

The list continues:
Molecule | Biofilm kill mix
CCC(C)c1ccc(NC(=S)NCc2ccccn2)cc1 (centres undefined) | 5.9
CC(=O)Cn1ncc(N2CCCCC2)c(Cl)c1=O | -3.8
Cn1nc(C(C)(C)C)c(NC(=O)c2ccc(F)cc2)c1C(C)(C)C | 17.3
COc1ccc(C(=O)CSc2ccc(-c3ccco3)nn2)cc1 | 14.7
N#Cc1c(NCCO)ccc([N+](=O)[O-])c1NCCO | 15.9
Cc1ccc(-c2nc3ccccc3[nH]c2=O)cc1 | 29.2
CC(CN1CCN(Cc2ccccc2)CC1)OC(=O)c1ccco1 (centres undefined) | 15.7
CCOC(=O)N1CCN(CC(=O)Nc2ccc([N+](=O)[O-])cc2C(=O)Nc2ccccc2F)CC1 | 8.8
COc1ccc(/C=C/C(=O)N[C@@H](C)C(=O)O)cc1 | -14.9
Cc1ccc2cccc(OCCOCCOc3ccccc3Br)c2n1 | 13.8
Cc1cc(C(=O)N/N=C/c2ccc3c(c2)OCO3)c(C)o1 | 14.6
CC(C)N(Cc1ccccc1)C(=S)Nc1ccc(OC(F)F)cc1 | -5.0
C=CCOC(=O)C1=C[C@H](C2CCCCC2)[C@@H](CCCO)[C@H](OCC)O1 | 12.0
CCc1nccn1CCC(=O)N1CCc2c([nH]c3ccccc23)C1CC(C)C (centres undefined) | 14.0
Cc1cc(C)c2c(c1)cc(C)c1nnc(SCC(=O)N3CCCc4ccccc43)n12 | 6.9
Cc1cc(N)n(-c2ccc(C)c(C)c2)n1 | 13.6
CC1(C)CC(=O)C(C=NCCN2CCN(C(=O)CCl)CC2)=C(O)C1 | 24.8
COc1ccc(Oc2ccc(/C=C/C(=O)c3cccc(OC)c3)cc2[N+](=O)[O-])cc1 | 10.8
Cc1c(N2C(=O)c3ccccc3C2(O)c2ccccc2)c(=O)n(-c2ccccc2)n1C (centres undefined) | 30.9
CC1=CC(=C(C#N)C#N)C=C(C)N1CCC(C)C | 14.8
Cc1ccc(C(=O)COC(=O)CCC(=O)Nc2ccccc2Cl)cc1[N+](=O)[O-] | -7.0
O=C(CSc1ccc(-c2ccccc2)nn1)N1CCCCC1 | 5.5
O=C1NC(c2cc(Cl)cc([N+](=O)[O-])c2O)Nc2ccccc21 (centres undefined) | 21.4
CN1CCN(c2ccc([N+](=O)[O-])cc2C(=O)Nc2ccccc2)CC1 | -8.9
NC(=O)COC(=O)c1ccc2c(c1)S(=O)(=O)N=C1CCCCCN12 | 14.9

Filtered by structure, those above containing a furan ring, fused or not (6)
Molecule | Biofilm kill mix
N=c1c2c(ncn1Cc1ccco1)Oc1cc(O)ccc1C2c1ccccc1 (centres undefined) | 11.0
CC1=C/C(=C\c2ccc(Br)o2)C(=O)O1 | 18.8
COc1cc(/C=N/Nc2ccc3ccccc3c2)ccc1OC(=O)c1ccco1 | 8.3
COc1ccc(C(=O)CSc2ccc(-c3ccco3)nn2)cc1 | 14.7
CC(CN1CCN(Cc2ccccc2)CC1)OC(=O)c1ccco1 (centres undefined) | 15.7
Cc1cc(C(=O)N/N=C/c2ccc3c(c2)OCO3)c(C)o1 | 14.6

The list goes on:
Molecule | Biofilm kill mix
Cc1cc(C)c(C(=O)N2CCCC(CNC(=O)C3(c4ccc(Cl)cc4)CC3)C2)c(=O)[nH]1 (centres undefined) | 5.2
Cc1nn(Cc2ccc(F)cc2)c(C)c1NC(=O)CCCn1nc([N+](=O)[O-])cc1C | 16.9
CC(C)CNC(=O)NC(=O)COC(=O)Cn1cnc2ccccc2c1=O | 9.1
COC(=O)CN1C(=S)N(c2ccc(OC)cc2)C(=O)/C1=C/c1ccc(N2CCOCC2)cc1 | 6.5
Cc1cc(N)n(-c2ccc(S(N)(=O)=O)cc2[N+](=O)[O-])n1 | 15.4
O=C1CCCC2=C1C(c1ccc(O)c(Br)c1)C1=C(CCCC1=O)N2c1ccccc1 | 10.4
CN1CCN(CCCN2c3ccccc3Sc3ccc(C(F)(F)F)cc32)CC1 | 6.5
CCC1(C)NC(=O)N(CC(=O)N2N=C(c3ccccc3)CC2c2ccc(OC)cc2)C1=O (centres undefined) | 20.3
CCOC(=O)c1ccc(-n2c(CN3CCOCC3)nc3ccc([N+](=O)[O-])cc3c2=O)cc1 | 4.3
Oc1ccc2ccccc2c1CN1CCOCC1 | 19.4
CC(C)[C@H](NC(=O)[C@H](CC(=O)O)NC(=O)[C@H](CCCCN)NC(=O)[C@@H](N)CCCN=C(N)N)C(=O)N[C@@H](Cc1ccc(O)cc1)C(=O)O | 7.4
Cc1cc(=O)oc2cc(OCC(=O)OCC(=O)N(CCC#N)c3ccccc3)ccc12 | 13.0
O=S(=O)(c1ccc(-c2ccon2)s1)N1CCN(c2ccncc2)CC1 | 20.8
CC(=O)c1nc2ccccc2n1CCc1ccccc1 | 3.9
COc1ccccc1NS(=O)(=O)c1cccc(NC(=O)c2ccc3ccccc3n2)c1 | 21.5
COc1ccc(-c2nc(-c3ccccn3)ncc2S(C)(=O)=O)cc1 | -6.2
COc1ccc(/C=C2\CCC(C3CCCC3)C2=O)cc1Cn1cccn1 (centres undefined) | 23.6
CC(C)COc1ccc(S(=O)(=O)n2cc(F)c(=O)[nH]c2=O)cc1 | 11.4
CN1CCN(C(=O)C2(NC(=O)Nc3ccccc3Cl)CCCCC2)CC1 | 14.0
N#CC(=C1Nc2ccccc2N1)S(=O)(=O)c1ccccc1 | -2.8
CN(C)/C=C1\C=C2C(=O)c3ccccc3N2C1=O | 28.1
O=C1CC2C(=O)NCCN2C(=NC(=O)c2ccccc2)N1 (centres undefined) | 27.4
O=C(Cc1ccccc1F)OCC(=O)N1CCc2ccccc21 | 15.7
COc1ccccc1NC(=O)/C(=N/OCc1ccc(F)cc1)C(C)=O | 5.9
CCCOc1ccc(-c2nnn(CC(=O)N3CCCCC3)n2)cc1 | 20.3
CCN1C(=O)c2cccc3c(NC(=O)c4ccccc4)ccc1c23 | 12.8
Cc1ccc(NC(=O)CC2SC(=O)NC2=O)cc1 (centres undefined) | 12.1
CCOC(=O)c1ccc2c(c1)sc(=NC(=O)c1ccco1)n2CCOC | 15.5
CCCN(C(=O)CN1C(=O)NC2(CCCCCC2)C1=O)C1CCS(=O)(=O)C1 (centres undefined) | 7.3
Cc1ccc(SCCCCN2CCNCC2)cc1 | 8.9
CCC(CC)C(=O)N=C1SC2CS(=O)(=O)CC2N1CCc1ccc(OC)c(OC)c1 (centres undefined) | 25.9
O=C(Nc1cccc(Cl)c1)Nc1ccc(Br)cc1F | 7.7
CCn1c(=N)n(CC(O)COc2ccc(C)cc2)c2ccccc21 (centres undefined) | 17.7
CCOC(=O)C1(CCc2ccccc2)CCN(C(=O)CN2CCOC2=O)CC1 | 7.9
CC(C)COC(=O)C(C)Nc1n[nH]c(=S)[nH]c1=O (centres undefined) | -0.6
O=C(O)c1ccc(N2C(=O)CC(SC(=NCc3ccc4c(c3)OCO4)Nc3ccccc3)C2=O)cc1 (centres undefined) | 21.0
COC(=O)N/N=C\c1c(C)[nH]n(-c2ccccc2)c1=O | 13.8
O=C(Cn1c(=S)[nH]c2ccccc2c1=O)N1CCN(c2ccccc2)CC1 | 10.6
O=C(/C=C/c1ccccc1)N/C(=C/c1ccccc1)C(=O)Nc1ccc(C(=O)O)cc1 | 0.3
C/C=C\C=C/C(=O)Nc1cccc(C2=NOC3(C2)C[C@@H](C(N)=O)N(C(=O)c2ccc(Cl)cc2)C3)c1 (some centres undefined) | 13.7
O=C1NCCCC1C(=O)N/N=C/c1cc([N+](=O)[O-])ccc1O (centres undefined) | 15.3
O=C(CCCc1cccs1)Nc1nccs1 | 12.9
COc1ccc(-c2csc(NC(=O)c3cc(=O)c4ccccc4o3)n2)cc1OC | 1.8
COc1ccccc1-c1nnc(SC/C(O)=C(\C#N)c2nc3ccccc3[nH]2)n1C1CCCCC1 | 10.2
COc1cc(OC)cc(C(=O)N[C@H](C(=O)Nc2cccc(S(=O)(=O)N3CCCC3)c2)C(C)C)c1 | 20.0
COc1ccc(-c2[nH]c(-c3ccc(C)cc3)nc2SCC(=O)Nc2nccs2)cc1 | -5.5
O=C(Nc1cc(Sc2ccccn2)cc([N+](=O)[O-])c1)c1cccc(F)c1 | -9.1
COc1ccc(C(C)=O)cc1COC(=O)c1ccc(N)c([N+](=O)[O-])c1 | 8.7
Cc1ccsc1/C=N/NC(=O)c1ccco1 | 15.4

An excerpt, so the mix of outcomes need not match the whole.
